YopH inh = YopH (Yersinia) phosphatase inhibition; fluorescence Ex485/Em525; inhibition, %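 (about 10 µM by stock and volumes)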; 140,000 tested, 0.16% active;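 active = inhibition of 50% or more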;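 note: controls were vehicle for no effect and minimum signal wells for full effect; inactives centre near -20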
Arbovirus inh = antivirals against arbovirus infection; inhibition, % at 10 µM; AID 1251; arbovirus infection cell-based antiviral screen; 200,000 tested, 0.37% active;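 active = inhibition from about 30%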;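 note: bluetongue infection of BSR cells; cell survival read as ATP light after 72 h; 0% = infected wells without compound and 100% = uninfected wells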
Mtb growth = M. tuberculosis H37Rv growth inhibitors, H37Rv strain (AID 1626); 220,000 tested, 0.95% active; M. tuberculosis H37Rv growth inhibition; higher % means a stronger effect; inhibition, % at 10 µM; hits with a dose series show IC50 in µM;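 active = confirmed in a dose series; inconclusive = inhibition above 80% but not taken into the dose series; inactive = below 80% or under 30% at every dose of the series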;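 note: bacteria incubated seven days before Alamar blue readout; 0% = bacteria only wells and 100% = bacteria with antibiotic wells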
Mtb bLac sens = beta-lactam sensitization of Mtb H37Rv. M. tuberculosis H37Rv growth with meropenem, percent inhibition; hits of this screen are not shown here. inhibition, % at 25 µM. 330,000 tested, 0.27% active. AID 434955;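 active = about 74% or more and at least 40 points above the plate without the antibiotic, then above 30% in a dose series; inconclusive = first-round hits that could not be retested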;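 note: growth measured after seven days incubation then overnight dye step; 0% = bacteria only wells and 100% = bacteria with antibiotic; twin plates without the antibiotic show which effects depend on it; some results filed as inactive read as strong as hits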
RecA splice inh = inhibitors of M. tuberculosis RecA intein splicing; AID 2221; P9WHJ3; inhibition, %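 (about 9 µM by stock and volumes)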; cell-free RecA intein splicing, fluorescence; 290,000 tested, 0.75% active; in the data active = inhibition above about 30%; inconclusive = no clear call, values can overlap the other calls;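 note: 0% = vehicle wells and 100% = reference inhibitor control wells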
Target sequence (P9WHJ3 whole entry, looked up, canonical isoform): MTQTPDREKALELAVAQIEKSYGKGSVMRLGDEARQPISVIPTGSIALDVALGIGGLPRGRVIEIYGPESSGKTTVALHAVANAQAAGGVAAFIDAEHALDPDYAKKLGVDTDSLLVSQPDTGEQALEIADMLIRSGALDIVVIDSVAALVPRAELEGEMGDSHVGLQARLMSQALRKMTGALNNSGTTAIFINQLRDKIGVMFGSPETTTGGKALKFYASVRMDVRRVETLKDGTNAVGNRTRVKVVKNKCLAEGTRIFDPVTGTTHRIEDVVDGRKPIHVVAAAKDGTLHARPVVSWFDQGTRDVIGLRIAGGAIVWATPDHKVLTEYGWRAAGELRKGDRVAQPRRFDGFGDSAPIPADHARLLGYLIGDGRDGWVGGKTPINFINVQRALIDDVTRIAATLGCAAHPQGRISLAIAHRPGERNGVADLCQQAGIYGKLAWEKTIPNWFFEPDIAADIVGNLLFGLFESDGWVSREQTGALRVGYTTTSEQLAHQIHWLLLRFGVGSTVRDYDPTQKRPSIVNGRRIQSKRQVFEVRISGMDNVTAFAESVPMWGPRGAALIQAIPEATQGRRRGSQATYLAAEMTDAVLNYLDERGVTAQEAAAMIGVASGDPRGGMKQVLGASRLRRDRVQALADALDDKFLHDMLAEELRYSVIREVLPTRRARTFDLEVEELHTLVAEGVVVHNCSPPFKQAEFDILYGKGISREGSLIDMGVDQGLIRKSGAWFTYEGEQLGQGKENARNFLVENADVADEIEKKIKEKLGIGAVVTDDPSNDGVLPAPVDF
Arbovirus inh repeat = second read-out of Arbovirus inh, no call of its own (marks repeat the call); inhibition, %; measured here: 10K subset replicate screen; many hits read low in the repeat;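 first of two repeat runs on a subset; 0% = infected and 100% = uninfected wells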
* marks the source's active call; other numbers are inactive results; u = inconclusive; x = not tested or not shown.

SMILES	YopH inh	Arbovirus inh	Mtb growth	Mtb bLac sens	RecA splice inh	others
Cc1ccc(-n2nc3c(=O)n(CCCC(=O)NCCN4CCN(C)CC4)nc(C)c3c2C)cc1	x	x	x	-3	2.0
CSc1ccc(C(=O)C2CCCN(Cc3cnc(SC)nc3)C2)cc1 (configuration not stated)	x	2	u	46	1.1
CCn1nc(-c2ccccc2)nc2c(=O)n(C)c(=O)nc1-2	102*	0	-12%	98	95*
COC(=O)/C(=N/Nc1ccc(C)cc1)N1CCCc2ccccc21	-16	18	u	99	8.5
COc1cccc(CNS(=O)(=O)c2cc3c4c(c2)CCC(=O)N4CCC3)c1	x	x	x	-11	-2.0
O=C1N=C(N2CCOCC2)S/C1=C\c1ccc(OS(=O)(=O)c2ccccc2)cc1	x	18	13%	-4	9.4
Cc1ccc(S(=O)(=O)NCCNC(=O)c2nonc2N)cc1	-15	-4	9%	-5	-0.5
CC(=O)Oc1ccc(-c2cccc(C(=O)Oc3ccccc3)c2)cc1	-5	4	u	99	3.2
COC(=O)c1ccc(Oc2nc(Nc3ccccc3)nc(N(C)C)n2)cc1	-42	-7	-1%	18	5.2
O=C1CC(NNc2nc3ccccc3s2)C(=O)N1c1ccc(F)cc1 (configuration not stated)	x	x	0%	-10	0.5
Fc1ccc(OCc2nc3ccccc3s2)cc1	x	-9	4%	0	2.9
CCN(CC)S(=O)(=O)c1ccc(C(=O)Nc2c3c(nn2C(C)(C)C)CS(=O)(=O)C3)cc1	-37	8	-10%	1	0.6
CCOC(=O)c1c(C)[nH]c(C(=O)COC(=O)c2oc3ccc(OC)cc3c2C)c1C	-9	-4	-5%	3	-1.9
N#Cc1cccc(C(=O)OCC(=O)N2CCCc3ccccc32)c1	x	x	x	-6	2.0
CC(=O)NCC(=O)N1CCC(n2nccc2NC(=O)CCCc2ccccc2)CC1	x	x	x	-6	-0.8
Cc1nnc2n(c1=O)C(CS(=O)(=O)c1ccccc1)CS2 (configuration not stated)	-23	10	-8%	-8	2.5
O=C(Nc1ccc2c(c1)OCO2)c1ccc(Br)o1	6	-28	22%	22	x
Cc1ccc(Cn2nnc(C(=O)Nc3cc(C)ccc3C)c2N)cc1	-25	-1	-2%	-6	1.4
Cc1ccc(S(=O)(=O)N(OCc2ccccc2)C(C)C(=O)O)cc1 (configuration not stated)	x	x	x	-12	-1.0
CC(C)NC(=O)c1ccc(-c2cc(C(F)(F)F)ccc2Cl)o1	-27	0	0%	-7	x
COc1ccc2c(c1)c(C(=O)CN1CCOCC1)c(C)n2C	-21	3	1%	-5	-2.9
Cc1cc(=O)oc(C)c1C(=O)OCC(=O)c1ccc2ccccc2c1	0	9	5%	-5	5.1
COc1cccc(CC(NC(C)=O)C(=O)NC2CCN(c3nc(C)cc(C)c3C#N)CC2)c1 (configuration not stated)	-26	5	2%	0	-2.2
CC(=O)N1C(=O)C2(C(C#N)=C(N)Oc3cc(C)oc(=O)c32)c2ccccc21 (configuration not stated)	-38	13	-10%	-1	-0.3
COc1ccc(N=C2C(=Nc3ccc(OC)cc3)N(c3ccc(OC)cc3)C(=S)N2C)cc1	-3	3	42%	38	4.4

Later entries.
SMILES	YopH inh	Arbovirus inh	Mtb growth	Mtb bLac sens	RecA splice inh	others
CCN(CC)CCNc1nc2nonc2nc1NCCN(CC)CC	x	x	-9%	3	-1.8
COc1ccc(N2CCN(C(=O)CN3C(=O)NC4(CCCc5ccccc54)C3=O)CC2)cc1 (configuration not stated)	x	x	x	-4	-0.6
CCOc1cc(/C=C2\N=C3CCCCCN3C2=O)ccc1O	x	9	5%	3	1.6
COC(=O)CSc1nnc2n(-c3ccc(OC)cc3)c(=O)c3c4c(sc3n12)CCCCC4	-26	8	25%	72	0.5
O=C(O)C1CC=CCC1C(=O)NCCCN1CCCC1=O (configuration not stated)	x	x	x	-16	1.3
C=CCn1c(N)cc(=O)nc1SCC(=O)NC(C)c1ccccc1 (configuration not stated)	-10	0	7%	1	0.8
NC(=O)c1ccc(NC(=O)CN2CCN(c3ccc(Cl)cc3)CC2)cc1	x	-2	3%	-3	0.2
COc1cccc(CN(C)C(=O)c2cc(COc3ccc4ncccc4c3)on2)c1	x	9	15%	-3	11
COc1ccc(OC)c(C2C(C(C)=O)=C(O)C(=O)N2CCc2ccc(OC)c(OC)c2)c1 (configuration not stated)	-16	-1	-1%	-12	0.3
Cn1cc(Br)c(C(=O)NC(=S)N2CCN(c3ccccn3)CC2)n1	-30	-4	-6%	9	-0.1
CC(Cl)c1cc(-c2ncc(C(F)(F)F)cc2Cl)no1 (configuration not stated)	x	0	1%	0	0.4
c1ccc2[nH]c(CCCc3nc4ccccc4[nH]3)nc2c1	x	x	x	-5	1.6
Nc1nc(Nc2ccccc2)nc(NC2CCCCC2)c1[N+](=O)[O-]	x	x	x	41	8.9
CS(=O)(=O)c1ccc2nc(NC(=O)Nc3ccc(Cl)cc3)sc2c1	-27	4	x	11	-5.1
COc1ccc(-c2cc(C(F)F)n3ncc(C(=O)Nc4c(C)n(C)n(-c5ccccc5)c4=O)c3n2)cc1	x	-5	2%	2	-0.2
COc1cccc(NC(=O)Cn2cnc3sc(C)c(S(=O)(=O)N4CCCCC4)c3c2=O)c1	-8	0	-2%	-1	-0.6
CCOC(=O)c1c(C)[nH]c(C(=O)COC(=O)COc2ccccc2C=O)c1C	0	0	6%	9	0.9
COC(=O)C1=C(N)Oc2cc(C)n(CC3CCCO3)c(=O)c2C1c1ccc(Cl)cc1 (configuration not stated)	-10	-5	-5%	-2	4.6
CCCn1c(SCc2nc3ccccc3s2)n[nH]c1=O	x	5	5%	-6	-2.6
Cn1ccc2c([N+](=O)[O-])cccc2c1=O	x	-6	-5%	3	x
Clc1ccc(CSc2nnc([C@@H]3CCCN3)o2)cc1Cl	-10	-8	7%	50	12
COC(C[C@H]1O[C@@H]1[C@@H](O)COCc1ccccc1)OC	x	x	-13%	x	-0.9
CCn1c(CNc2ccc(Cl)cc2)nnc1SCc1ccc(Cl)cc1	-10	-35	11%	8	6.1
S=c1[nH]c(-c2ccccc2)cn1/N=C/c1cccs1	x	x	4%	-1	0.4
N#C/C(=C\c1cccnc1)C(=O)Nc1cccc(Cl)c1	x	0	0%	2	-0.7

Of the compounds above, these contain two or more sulfur atoms.
SMILES	YopH inh	Arbovirus inh	Mtb growth	Mtb bLac sens	RecA splice inh	others
CSc1ccc(C(=O)C2CCCN(Cc3cnc(SC)nc3)C2)cc1 (configuration not stated)	x	2	u	46	1.1
O=C1N=C(N2CCOCC2)S/C1=C\c1ccc(OS(=O)(=O)c2ccccc2)cc1	x	18	13%	-4	9.4
CCN(CC)S(=O)(=O)c1ccc(C(=O)Nc2c3c(nn2C(C)(C)C)CS(=O)(=O)C3)cc1	-37	8	-10%	1	0.6
Cc1nnc2n(c1=O)C(CS(=O)(=O)c1ccccc1)CS2 (configuration not stated)	-23	10	-8%	-8	2.5
COC(=O)CSc1nnc2n(-c3ccc(OC)cc3)c(=O)c3c4c(sc3n12)CCCCC4	-26	8	25%	72	0.5
CS(=O)(=O)c1ccc2nc(NC(=O)Nc3ccc(Cl)cc3)sc2c1	-27	4	x	11	-5.1
COc1cccc(NC(=O)Cn2cnc3sc(C)c(S(=O)(=O)N4CCCCC4)c3c2=O)c1	-8	0	-2%	-1	-0.6
CCCn1c(SCc2nc3ccccc3s2)n[nH]c1=O	x	5	5%	-6	-2.6
S=c1[nH]c(-c2ccccc2)cn1/N=C/c1cccs1	x	x	4%	-1	0.4

Carrying on.
SMILES	YopH inh	Arbovirus inh	Mtb growth	Mtb bLac sens	RecA splice inh	others
CC1CC(C)CN(CCCNS(=O)(=O)c2ccc3c(c2)CCN3C(=O)C2CC2)C1 (configuration not stated)	x	x	x	-4	1.2
CC1CCN(C(=S)NC2CCCCC2)CC1	-30	7	-7%	-1	3.3
C/C(=N\NC(=O)c1ccco1)c1cc2ccccc2o1	-8	-4	-3%	-3	0.3
c1ccc2cc(CNCc3cccc4ccccc34)ccc2c1	x	x	15%	-8	8.7
COC(=O)c1ccsc1NC(=O)CN1CCN(c2ccc(F)cc2)CC1	-17	10	14%	84	2.9
CCCc1cc(=O)oc2cc(OCC(=O)NCc3cccs3)ccc12	-22	-2	8%	-1	0.6
CC1(c2ccc(Cl)cc2)NC(=O)N(CC(=O)Nc2ccc(F)cc2)C1=O (configuration not stated)	x	x	x	-5	1.3
COc1ccc(Br)cc1C(=O)N/N=C/c1cccnc1	x	x	x	5	2.2
CCN1CCN(CC(=O)c2ccc(C)cc2)CC1	x	x	x	2	0.8
COC(=O)c1ccccc1N(C)C(=O)C12CCC(C)(C(=O)O1)C2(C)C (configuration not stated)	-2	6	3%	-6	1.1
COc1cccc2cc(C(=O)N3CCC(C)CC3)c(=O)oc12	-11	1	7%	3	-1.5	Arbovirus inh repeat=1
CCOC(=O)C(=N/O)/C(C)=N/NC(=O)C(=O)Nc1cc(Cl)ccc1Cl	x	x	-6%	-8	2.6
Cc1ccc(Nc2nc(Oc3ccc(OCc4ccccc4)nn3)nc(N3CCOCC3)n2)cc1	-15	11	-1%	-7	-1.6
CC1=[N+](C)c2c(ccc3cccnc23)C1(C)C	x	-12	u	x	x
Fc1cccc(CCNCc2ccccn2)c1	-18	7	-4%	33	-2.4
COC(=O)c1ccc(-c2noc(CN(Cc3nccn3C)C(C)C)n2)cc1	x	4	0%	22	0.7
C=C1CCN([C@@H](CC(C)C)C(=O)NCCC(C)C)S(=O)(=O)c2ccccc21	x	x	-1%	-2	1.7
CCCOc1ccc(CSc2nnc(CCC)n2N)cc1	-19	5	0%	-3	-0.3
COc1ccc(/C(C)=N/NC(=O)Cc2ccc(Cl)cc2)cc1	x	x	x	-9	0.3
Cc1cc(C)n2nc(CC(=O)NNC(=O)c3ccccc3Cl)nc2n1	x	x	x	-1	0.8
CCC(C)(C)n1nnnc1C(c1ccccc1)N1CCc2ccccc2C1 (configuration not stated)	-11	-41	-7%	0	10
Cc1ccc(CC(=O)Nc2ccc(F)c([N+](=O)[O-])c2)cc1	-25	-1	6%	3	1.9
O=C(COc1ccc(Br)cc1)Nc1nnc(-c2cccnc2)s1	x	x	7%	-10	0.9
CCOC(=O)CNC(=O)CSc1nnc(C)c(=O)[nH]1	-26	-10	0%	3	4.2
C=CCn1c(CSc2nc3ccccc3s2)nnc1SCC(=O)OCC	-8	0	-7%	32	0.2	Arbovirus inh repeat=2

The listing continues:
SMILES	YopH inh	Arbovirus inh	Mtb growth	Mtb bLac sens	RecA splice inh	others
CSc1cccc(CN(C)C(=O)C2CCC(=O)N(CCCN3CCCC3=O)C2)c1 (configuration not stated)	x	x	x	3	-4.1
NNC(=O)c1cc2cc(OC(F)(F)F)ccc2[nH]1	x	x	53%	74	4.0
Cc1ccc(Nc2nc(N)c([N+](=O)[O-])c(NCCO)n2)cc1	x	x	-5%	-5	-1.0
Cc1ccc(S(=O)(=O)CC(=O)Nc2nc3ccccc3s2)cc1	x	x	x	4	-2.2
CC(Oc1ccc(-c2ccccc2)cc1)C(=O)O (configuration not stated)	-50	3	-3%	u	-2.3
Cc1ccccc1NC(=O)NC1CCCCC1C (configuration not stated)	x	1	4%	-1	0.4
Cc1cc(C)nc(NS(=O)(=O)c2ccc(NC(=S)NC(=O)C3CCCC3)cc2)n1	-37	3	-11%	8	-1.0
Cc1cccc(NS(=O)(=O)c2nnc(NC(=O)C3CCCCC3)s2)c1	x	x	x	-4	1.2
CCc1ccc(N(C(=O)c2snc(C(N)=O)c2N)C(C(=O)NCC2CCCO2)c2cccs2)cc1 (configuration not stated)	x	-13	67%	-4	6.3

Assay outcomes as filed in PubChem.

Only part of the results is shown; count on the stated rates, not on these rows.
